Compound activity as filed in PubChem BioAssay.
FGF22 binding = FGF22 (human) thermal shift binding. Q9HCT0. recombinant FGF22 thermal shift, SYPRO orange fluorescence; percent of sucrose octasulfate shift, DMSO zero. calls only at 9.99 µM. 1.5% of 340,000 active. AID 651658;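 active = melting point raised past a set limit in the mean and every replicate; three in four hits are not shown here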
Target sequence (Q9HCT0 whole entry, looked up): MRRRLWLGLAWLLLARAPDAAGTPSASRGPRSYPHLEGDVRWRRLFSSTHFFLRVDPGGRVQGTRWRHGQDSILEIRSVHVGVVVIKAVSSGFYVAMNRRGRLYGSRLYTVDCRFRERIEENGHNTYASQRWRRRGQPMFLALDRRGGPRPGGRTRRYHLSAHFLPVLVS
Ecoli rRNA inh = selective bacterial rRNA inhibition in E. coli; E. coli WT GFP vs humanized-ribosome RFP mutants, fluorescence, 24 h; hits give low values; DMSO median 0, no signal -100; GFP signal change (wild-type ribosome), % (concentration not given with the values); 1.6% of 350,000 active; AID 720706;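 active = significant combined selectivity score with lowered wild-type GFP, culture density cut under 30%, mutant RFP and density less affected; inactive = any of these conditions unmet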; note: one replicate is shown; some compounds called inactive have numbers as strong as hits
AF4-AF9 inh = inhibitors of human MLL-AF4/AF9 interaction; AID 651704; AlphaScreen, biotin-AF4 peptide binding to FLAG-AF9; 0.47% of 350,000 active; inhibition, % at 10 µM;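 active = every replicate reaching a set inhibition limit, whatever the replicate mean, cut at about 25% in these data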;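 note: 0% = plate neutral control median and 100% = total signal loss; the record names both 10 and 1 µM as test concentration; the first replicate is given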
Target sequence (P42568 whole entry, looked up): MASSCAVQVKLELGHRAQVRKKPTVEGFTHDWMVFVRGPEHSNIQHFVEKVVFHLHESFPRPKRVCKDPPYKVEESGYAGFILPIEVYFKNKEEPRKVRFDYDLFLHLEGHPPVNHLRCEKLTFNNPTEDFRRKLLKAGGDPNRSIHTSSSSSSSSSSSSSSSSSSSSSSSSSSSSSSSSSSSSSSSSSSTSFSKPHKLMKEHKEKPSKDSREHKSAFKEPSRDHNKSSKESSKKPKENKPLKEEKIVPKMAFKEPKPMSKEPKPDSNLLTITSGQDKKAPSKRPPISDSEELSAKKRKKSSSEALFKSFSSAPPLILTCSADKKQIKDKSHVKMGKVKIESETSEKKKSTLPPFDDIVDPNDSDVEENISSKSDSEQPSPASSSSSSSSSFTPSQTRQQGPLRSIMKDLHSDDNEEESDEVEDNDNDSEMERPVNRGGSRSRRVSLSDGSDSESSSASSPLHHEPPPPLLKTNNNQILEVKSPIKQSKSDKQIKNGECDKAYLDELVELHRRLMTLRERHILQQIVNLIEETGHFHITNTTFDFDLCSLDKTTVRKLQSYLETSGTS
Ecoli rRNA inh OD600 = recorded beside Ecoli rRNA inh, whose call it bears; OD600 change, %; measured here: OD600 growth;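 optical density of the mix in the first replicate; 0 = DMSO median and -100 = no signal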
Ecoli rRNA inh RFP = recorded beside Ecoli rRNA inh, whose call it bears; RFP signal change, %; measured here: RFP humanized mutant strains;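 first replicate; 0 = DMSO median and -100 = no signal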
Numbers without * were called inactive; i = inactive; & = joins results of further samples. These rows are one share of the data; rates above refer to the full screens.

FGF22 binding	Ecoli rRNA inh	Ecoli rRNA inh OD600	Ecoli rRNA inh RFP	AF4-AF9 inh	mol
i	0&3	3&7	1.4&-2.1	-0.1&0.4	C[C@@H]1CN([C@@H](C)CO)C(=O)CCCn2nncc2CO[C@@H]1CN(C)S(=O)(=O)c1ccccc1
i	3	12	-2.6	-1.1	O=C(C[C@@H]1C=C[C@@H](NC(=O)Nc2ccc3c(c2)OCO3)[C@@H](CO)O1)NCc1ccc(Cl)cc1
i	1	9	-1.2	-16	CN1CCN(C(=O)C[C@H]2C[C@@H]3c4cc(NC(=O)CC5CC5)ccc4O[C@@H]3[C@H](CO)O2)CC1
i	-2	-1	-0.6	2.1	CO[C@@H]1CN(C)C(=O)c2cc(NC(C)=O)ccc2OC[C@@H](C)N(C(=O)c2ccccc2F)C[C@@H]1C
i	-10	-15	-0.6	2.9	C[C@H]1CN([C@@H](C)CO)S(=O)(=O)c2ccc(-c3ccccc3)cc2O[C@@H]1CN(C)C(=O)CC1CC1
i	-9	-42	21	-5.0	CC(C)NC(=O)Nc1ccc2c(c1)CC(=O)N([C@@H](C)CO)C[C@@H](C)[C@H](CN(C)Cc1ccc(Cl)c(Cl)c1)O2
i	-3	10	0.0	-2.1	C[C@@H]1CN([C@@H](C)CO)C(=O)c2cc(-c3cccc(C(=O)N(C)C)c3)cnc2O[C@H]1CN(C)C(=O)Cc1ccccn1
i	3	0	-0.6	-2.6	C[C@H](CO)N1C[C@H](C)[C@@H](CN(C)S(=O)(=O)c2ccc(F)cc2)Oc2ccc(NS(C)(=O)=O)cc2CC1=O
i	2	-10	4.8	-1.3	O=C(C[C@H]1C[C@H]2c3cc(NC(=O)CC4CC4)ccc3O[C@H]2[C@H](CO)O1)NCc1ccccn1
i	9	4	0.4	-1.7	O=C1CCN(C(=O)c2ccccc2)c2ccccc21

The final seven compounds of the part before lead into the next:
FGF22 binding	Ecoli rRNA inh	Ecoli rRNA inh OD600	Ecoli rRNA inh RFP	AF4-AF9 inh	mol
i	-2	-1	-0.6	2.1	CO[C@@H]1CN(C)C(=O)c2cc(NC(C)=O)ccc2OC[C@@H](C)N(C(=O)c2ccccc2F)C[C@@H]1C
i	-10	-15	-0.6	2.9	C[C@H]1CN([C@@H](C)CO)S(=O)(=O)c2ccc(-c3ccccc3)cc2O[C@@H]1CN(C)C(=O)CC1CC1
i	-9	-42	21	-5.0	CC(C)NC(=O)Nc1ccc2c(c1)CC(=O)N([C@@H](C)CO)C[C@@H](C)[C@H](CN(C)Cc1ccc(Cl)c(Cl)c1)O2
i	-3	10	0.0	-2.1	C[C@@H]1CN([C@@H](C)CO)C(=O)c2cc(-c3cccc(C(=O)N(C)C)c3)cnc2O[C@H]1CN(C)C(=O)Cc1ccccn1
i	3	0	-0.6	-2.6	C[C@H](CO)N1C[C@H](C)[C@@H](CN(C)S(=O)(=O)c2ccc(F)cc2)Oc2ccc(NS(C)(=O)=O)cc2CC1=O
i	2	-10	4.8	-1.3	O=C(C[C@H]1C[C@H]2c3cc(NC(=O)CC4CC4)ccc3O[C@H]2[C@H](CO)O1)NCc1ccccn1
i	9	4	0.4	-1.7	O=C1CCN(C(=O)c2ccccc2)c2ccccc21
i	-35	-61	16	4.7	CCCN1[C@@H]2c3ccc(-c4cccc(F)c4)c(=O)n3C[C@@H]2[C@@H](CO)[C@@H]1C(=O)N[C@H](C)c1ccccc1
i	-46	-61	13	0.2	C[C@@H](NC(=O)C[C@H]1CC[C@H]2[C@@H](COC[C@@H](O)CN2C(=O)Nc2cc(Cl)cc(Cl)c2)O1)c1ccccc1
i	-7	-6	1.2	1.2	COc1cccc(-c2cn(CC[C@@H]3CC[C@H](NS(=O)(=O)Cc4ccccc4)[C@H](CO)O3)nn2)c1
i	-3	-1	-2.7	-3.4	C[C@@H]1CN([C@H](C)CO)C(=O)c2cc(NS(=O)(=O)c3ccc(F)cc3)ccc2O[C@H]1CN(C)Cc1ccncc1
i	11	13	2.3	-2.1	C[C@@]12CC[C@@H](C3=C(CCC3)C1)N2c1ccccc1
i	3	18	-3.0	-0.7	CCNC(=O)[C@@H]1[C@@H](CO)[C@@H]2Cn3c(ccc(-c4ccccc4)c3=O)[C@H]1N2CCC(F)(F)F
i	4	2	-0.9	-5.0	COc1ccc(NC(=O)N(C)C[C@H]2OCCCC[C@@H](C)Oc3ccc(NS(C)(=O)=O)cc3C(=O)N([C@@H](C)CO)C[C@@H]2C)cc1
i	-59	-78	-19	3.4	COc1ccc(CC(N)c2csc(NC(=O)C(c3ccccc3)c3ccccc3)n2)cc1 (centres undefined)
i	7	5	-0.4	0.1	COC(=O)[C@H](CO)N1C(=O)[C@@H]2[C@H](C1=O)C1C=C[C@H]2C1
i	4	15	-1.0	-0.8	COc1cccc(S(=O)(=O)N2C[C@@H](O)COC[C@H]3O[C@H](CC(=O)N4CCOCC4)CC[C@@H]32)c1
i	0	-2	-0.8	0.2	COCC(=O)N1[C@@H](CO)[C@@H](c2ccc(-c3ccccc3)cc2)C12CN(C(C)=O)C2
i	3	3	-0.1	-1.9	CCC1NC(=O)c2cccnc2-n2c1nc1cc(C)cc(C)c1c2=O (centres undefined)
i	7	23	-1.8	3.3	CCCCN(C=O)c1c(CC)nc2c(OCCn3cccc3)cccn12
i	2	-4	-0.5	2.3	COc1ccc(S(=O)(=O)N(C)C[C@@H]2Oc3cc(-c4ccccc4OC)ccc3S(=O)(=O)N([C@H](C)CO)C[C@H]2C)cc1
i	1	4	0.1	-0.6	C[C@@H]1CN([C@H](C)CO)C(=O)c2cc(NC(=O)NC3CCCCC3)ccc2O[C@@H](C)CCCCO[C@@H]1CN(C)S(=O)(=O)c1cn(C)cn1
i	-2	5	-0.6	1.8	C[C@H](CO)N1C[C@H](C)[C@H](CN(C)Cc2ccc(C(F)(F)F)cc2)Oc2ccc(NS(=O)(=O)c3ccc(F)cc3)cc2CC1=O
i	-34	-71	3.0	-9.0	N#C[C@H]1[C@H](c2ccc(C#Cc3ccc(F)cc3)cc2)[C@H](CO)N1C(=O)C1CCC1
i	-1	4	-0.4	-1.4	COC(=O)C[C@@H]1CC[C@@H]2[C@H](COc3ccc(NS(=O)(=O)c4ccc(C)cc4)cc3C(=O)N2C)O1
i	2	-2	6.6	-3.1	N#Cc1c2c(c(Nc3ccc(F)cc3)n3c1nc1ccccc13)CCCC2
i	2	-1	-2.2	-2.7	Cc1ccc(S(=O)(=O)Nc2ccc3c(c2)CC(=O)N([C@H](C)CO)C[C@H](C)[C@H](CN(C)C(=O)Nc2cccc4ccccc24)O3)cc1
i	-9	-24	5.2	-2.8	O=C(C[C@@H]1C[C@@H]2c3cc(NS(=O)(=O)c4ccc(F)cc4)ccc3O[C@@H]2[C@@H](CO)O1)NCc1ccccc1F
i	2	14	-5.0	-1.4	CNc1cccc(-c2cccc(C(=O)N3CCOCC3)c2)n1
i	7	19	1.3	2.9	COc1ccc(NS(=O)CCCc2ccccc2)cc1 (centres undefined)
i	-13	-20	17	7.0	C[C@H]1CCCCO[C@H](CN(C)Cc2ccccc2)[C@@H](C)CN([C@@H](C)CO)C(=O)c2cc(NC(=O)Nc3cccc4ccccc34)ccc2O1
i	-2	1	0.9	1.8	CO[C@@H]1CN(C)C(=O)c2ccc(NC(=O)Nc3ccccc3F)cc2OC[C@@H](C)N(C)C[C@@H]1C
i	2	-4	1.7	8.7	C[C@@H]1CN([C@H](C)CO)S(=O)(=O)c2ccc(C#CCC3CCCC3)cc2O[C@@H]1CN(C)C(=O)CN(C)C
i	-60	-77	-18	0.2	Cc1ccccc1/C(=N\S(=O)(=O)c1ccc(Br)cc1)Nc1ccccc1
i	-1	5	-1.8	0.3	CO[C@@H]1CN(C)C(=O)c2ccc(NC(=O)NC(C)C)cc2OC[C@@H](C)N(C(=O)CC2CC2)C[C@@H]1C
i	-7	-39	4.1	-3.8	CCc1noc(C)c1C(=O)OCC(=O)c1ccc(NC(=O)CC(C)C)cc1
i	-11	-5	7.4	-2.1	O=C(NCc1ccccc1)[C@@H]1CCCN1C(=O)[C@H]1CCCN1C(=O)c1ccc(Cl)c(Cl)c1
i	1	6	-0.9	-0.2	O=C(C[C@@H]1C=C[C@@H](NS(=O)(=O)c2ccccc2)[C@H](CO)O1)NCCN1CCCCC1
i	2	10	-0.2	-4.3	C[C@H](CO)N1C[C@H](C)[C@H](CN(C)S(C)(=O)=O)Oc2c(NS(=O)(=O)c3cccs3)cccc2C1=O
i	13	13	3.0	3.1	CC1(C(=O)Nc2ccc(Cl)c(C(F)(F)F)c2)Cc2c(-c3ccccc3)ccnc2O1 (centres undefined)
i	0&11	1&0	2.0&-0.3	-2.2&-1.4	O=C(C[C@@H]1C=C[C@H](NS(=O)(=O)c2ccccc2F)[C@@H](CO)O1)NCCCN1CCOCC1
i	1	1	-1.7	-1.4	C[C@@H]1CCCCO[C@H](CN(C)C(=O)Nc2ccc(C(F)(F)F)cc2)[C@@H](C)CN([C@@H](C)CO)C(=O)c2cc(NC(=O)C3CCCCC3)ccc2O1
i	-3	-2	0.9	13	C[C@H](CO)N1C[C@H](C)[C@H](CN(C)Cc2ccc(-c3ccccc3)cc2)Oc2c(NC(=O)Nc3ccc4c(c3)OCO4)cccc2C1=O
i	1	9	-2.2	0.5	C[C@H]1CCCCO[C@@H](CN(C)C(=O)c2ccncc2)[C@@H](C)CN([C@@H](C)CO)C(=O)c2cc(NS(=O)(=O)c3ccccc3)ccc2O1
i	0	-5	-3.3	-1.8	COc1ccccc1-c1ccc([C@@H]2[C@H](CO)N(C(C)=O)C23CN(C(C)=O)C3)cc1
i	0	0	-0.3	3.3	C[C@@H]1CN([C@H](C)CO)S(=O)(=O)c2ccc(/C=C/c3ccccc3)cc2O[C@@H]1CN(C)C(=O)NC1CCCCC1
i	4	-1	-1.0	-0.5	C[C@@H]1CN([C@H](C)CO)C(=O)Cc2cc(NS(C)(=O)=O)ccc2O[C@H]1CN(C)C(=O)NC1CCCCC1
i	3	1	-0.7	-0.4	O=C(C[C@H]1C[C@@H]2c3cc(NC(=O)CC4CC4)ccc3O[C@@H]2[C@@H](CO)O1)NCC(F)(F)F
i	6	8	-2.7	-3.0	C[C@@H]1CN([C@H](C)CO)C(=O)c2cc(-c3cncnc3)cnc2O[C@@H]1CN(C)C(=O)Cc1ccccc1
i	0	8	1.0	-1.6	CO[C@@H]1CN(C)C(=O)c2ccc(NS(=O)(=O)c3ccc(C)cc3)cc2OC[C@H](C)NC[C@H]1C
i	-2	-9	-0.7	-0.4	Cc1ccc(S(=O)(=O)N(C)C[C@@H]2Oc3ccc(NC(=O)CCC(F)(F)F)cc3CC(=O)N([C@H](C)CO)C[C@H]2C)cc1
i	-2	-11	-0.3	-15	Cc1ccc(-c2ccc([C@@H]3[C@@H](CO)N4C(=O)CN(C(=O)c5cccnc5)C[C@@H]34)cc2)cc1
i	5	-14	-3.0	-16	COCc1cccc(-c2csc(C(C)(O)c3ccc(OC)cc3)n2)c1 (centres undefined)
i	-2	-4	-5.2	-0.8	COCC(=O)Nc1ccc2c(c1)C(=O)N(C)[C@H]1CC[C@H](CC(=O)NCCc3ccncc3)O[C@H]1CO2
i	27	14	0.7	4.6	CC(C)C[C@@H](CNCC(=O)[C@H](C)NC(=O)c1[nH]cnc1C(=O)N[C@@H](C)CN)NC(=O)c1nc[nH]c1C(=O)N[C@@H](CC(=O)O)C(=O)O
i	14	22	3.5	-4.2	O=C(C(=O)N1CCN(CCN2CCOCC2)CC1)c1ccccc1
i	-3	0	-1.4	-1.5	C[C@@H]1CN([C@H](C)CO)S(=O)(=O)c2ccc(-c3ccc(C(=O)N(C)C)cc3)cc2O[C@@H]1CN(C)C(=O)C1CCC1

Next records follow:
FGF22 binding	Ecoli rRNA inh	Ecoli rRNA inh OD600	Ecoli rRNA inh RFP	AF4-AF9 inh	mol
i	3	6	-0.3	3.7	C[C@H]1CN([C@@H](C)CO)C(=O)c2cccc(NC(=O)c3ccc(-c4nccs4)cc3)c2O[C@@H]1CN(C)Cc1ccc(-c2ccccc2)cc1
i	6	18	-3.6	-2.1	C[C@H](CO)N1C[C@H](C)[C@H](CN(C)C(=O)Cc2ccccn2)Oc2ncc(-c3cccc(C(=O)N(C)C)c3)cc2C1=O
i	6	12	3.2	-2.4	C[C@H](CO)N1C[C@H](C)[C@@H](CN(C)C)Oc2cc(Br)ccc2S1(=O)=O
i	2	3	1.2	0.8	Cc1ccc(-c2ccc([C@@H]3[C@@H](CO)N4CCCCN(C(=O)c5ccncc5)C[C@H]34)cc2)cc1
i	5	15	-1.1	0.0	O=S1(=O)CC(N2CCCCC2)C1CN1CCCCC1 (centres undefined)
i	-4	-6	-0.7	3.6	CC(=O)c1ccc(N2CCN(C(=O)CNC(=O)c3ccc(Br)o3)CC2)cc1
i	2	3	-0.4	-2.0&2.1	CCCN(C)C[C@@H]1Oc2ncc(-c3ccccc3)cc2C(=O)N([C@H](C)CO)C[C@@H]1C
i	2	2	-1.8	-0.9	CO[C@H]1CN(C)C(=O)c2ccc(NS(C)(=O)=O)cc2OC[C@@H](C)N(C)C[C@H]1C
